Menin MLL FP FL = qHTS Assay for Inhibitors Targeting the Menin-MLL Interaction in MLL Related Leukemias: Competition With Fluorescein Labeled MLL-derived Peptide; Fluorescence polarization, fluorescein-MLL peptide displacement from menin; FP activity change, % at 61.4 µM; 290,000 tested, under 10 active; inconclusive = falling polarisation curve, or a change in total fluorescence; inactive = total fluorescence flat and polarisation flat or rising; no compound was filed as active; the % refers to the polarisation; negative = inhibition;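 further: % of control where 0% means no effect; inhibitors lower the polarisation; unlabelled MLL peptide was the positive control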
TRPML1 ag = qHTS for Agonists of the Human Mucolipin Transient Receptor Potential 1 (TRPML1) | 0.12% of 410,000 active | activation, % (no concentration beside the values) | TRPML1-expressing cells, Ca2+ dye fluorescence, FDSS; host cell line not named in the record; reference of the full effect not given here | Mucolipin-1 (Homo sapiens), Q9GZU1; in the data active = activation above about 50%; inconclusive = about 30% to 50%; inactive = below about 30%; further: 0% is about no effect; the text of the record puts the active cut at 80%
Target sequence (Q9GZU1 whole entry, looked up): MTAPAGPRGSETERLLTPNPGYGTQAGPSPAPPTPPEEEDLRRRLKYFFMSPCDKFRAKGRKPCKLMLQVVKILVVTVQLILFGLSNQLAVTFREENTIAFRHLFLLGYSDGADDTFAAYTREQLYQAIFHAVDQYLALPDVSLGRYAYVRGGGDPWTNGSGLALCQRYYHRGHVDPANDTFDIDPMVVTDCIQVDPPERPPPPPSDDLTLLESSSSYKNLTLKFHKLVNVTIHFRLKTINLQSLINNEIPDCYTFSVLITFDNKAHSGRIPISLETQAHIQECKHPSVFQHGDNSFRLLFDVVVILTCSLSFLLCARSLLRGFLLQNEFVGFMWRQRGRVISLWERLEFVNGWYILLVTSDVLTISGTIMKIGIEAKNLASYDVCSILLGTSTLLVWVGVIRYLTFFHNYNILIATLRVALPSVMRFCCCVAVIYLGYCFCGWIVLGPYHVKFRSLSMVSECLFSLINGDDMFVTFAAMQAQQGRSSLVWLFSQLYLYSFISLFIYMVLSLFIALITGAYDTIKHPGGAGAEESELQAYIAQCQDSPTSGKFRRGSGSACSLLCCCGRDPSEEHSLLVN
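Calcium fluorescence on an FDSS kinetic reader gave the read-out. Tet-induced TRPML1-DL cells were plated overnight, dye-loaded (Ca8 with quencher, 45-90 min, room temperature, dark), then read 110 s after compound addition, and again 110 s after 4uM final 54-4 (EC80).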
TRPML1 inh = qHTS for Inhibitors of the Human Mucolipin Transient Receptor Potential 1 (TRPML1); Mucolipin-1 (Homo sapiens), Q9GZU1; 0.02% of 390,000 active; TRPML1-inducible cells, Ca2+ dye fluorescence, FDSS; active compounds read low; inhibition of EC80 agonist-evoked calcium signal; activity change, negative = inhibition, % (concentration not given with the values); AID 624415, 2012; in the data active means activity change below about -50%; inconclusive means about -30% to -50%; inactive means above about -30%;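 further: stimulus is agonist 54-4 at its EC80 concentration; on the % scale 0 is the no-effect control and ±100 the full control effect; the text of the record puts the active cut at -80%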
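Calcium fluorescence in TRPML1-DL cells induced overnight with Tet: a 110 s read after compound pin addition, then a 110 s antagonist read after challenge with 54-4 at 4 uM final (EC80).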
ClpP mod = qHTS Assay for Activators of ClpP. ATP-dependent Clp protease proteolytic subunit (Bacillus subtilis (strain 168)), P80244. purified B. subtilis ClpP, FRET peptide cleavage, 20 min. Potency, µM (series often up to 57.5 µM), for the others: at the top dose activity change, negative = active. 1.9% of 340,000 active. AID 651965, 2013; active = well fitted falling curve with a large enough effect; inconclusive = small, poorly fitted or top-dose-only effect; inactive = no such curve, though single readings can be large or run the other way; further: potency means the concentration at half of the fitted maximal effect; the source files actives as falling curves though it sought activators and does not explain the sign; nearly all actives have a fitted effect of over 65% in size; many hits overshoot -100%
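ClpP 10 microg/mL final, pH 8 Tris/KCl buffer with BSA, glycerol, Tween-20; compound pinned in; FRET-FV substrate; RT 20 min; Ex320/Em430; ΔFRET vs ADEP 5.8 microM, DMSO, no enzyme.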
PINK1 expr mod = A Quantitative High throughput Screen to Identify Chemical Modulators of PINK1 Expression | 0.2% of 410,000 active | PINK1 immunofluorescence, high-content cytometry, 24 h | AID 624263, 2012 | Potency, µM (doses to about 76.6 µM), for the others: top-dose activation (PINK1 increase), usual class: activators; active = well fitted activation curve with a large enough effect; inconclusive = small, poorly fitted or top-dose-only effect; inactive = flat fitted curve, though single readings scatter; cell line not stated here;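 further: potency means the concentration at half of the fitted maximal effect; % of control where 0% means no effect; nearly all actives have a fitted effect of over 65% in size; a mitochondrial uncoupler was the plate control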
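PINK1 protein, normally rapidly degraded, was detected by immunofluorescence after 24 hour compound treatment of a stable cell line. Titration data (5 concentrations) came from laser-scanning cytometry, with CCCP-treated wells as controls.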
TRPV1 PAM = HTS Assay for Compounds that Act as Potentiators of the Vanilloid Receptor 1; Transient receptor potential cation channel subfamily V member 1 (Homo sapiens), Q8NER1; TRPV1-expressing cells, Fluo-8 calcium influx, capsaicin EC20 potentiation; host cell line not named in the record; control for the full effect not named in the record; potentiation, % at 8.33 µM; 0.02% of 320,000 active; AID 540277, 2011; active means potentiation above 80%; inconclusive means 30% to 80%; inactive means below 30%; further: 0% is about no effect
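Cells expressing TRPV1 were dye-loaded with Fluo-8 and read kinetically: 10 s baseline, 3 min after compound (agonist portion), then 2 min after EC20 capsaicin (allosteric enhancer portion). Calcium-bound dye fluorescence at 480/520 nm.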
Sfp inh = qHTS Assay for Inhibitors of Bacillus subtilis Sfp phosphopantetheinyl transferase (PPTase) | 4'-phosphopantetheinyl transferase ffp (Bacillus subtilis), Q9F4F7 | 3.5% of 310,000 active | Potency, µM, without a hit: max response, negative = inhibition, actives largely listed as inhibitors | Biochemical Sfp PPTase activity, qHTS; active means well fitted inhibition curve with a large enough effect;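 further: the enzyme is Sfp with the accession as filed and its product quenches rhodamine fluorescence; potency means the concentration at half of the fitted maximal effect; 0% = enzyme reaction without inhibitor and -100% = no enzyme wells; top concentration of the series not given in the record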
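Fluorescence-quenching assay: 15 nM Sfp-PPTase preincubated 15 min at room temperature with compound, then 5 uM rhodamine-CoA and 12.5 uM BHQ-2-labelled YbbR peptide added. Fluorescence (ex 525/em 598 nm) read at start and after 30 min; difference gives rate.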
The depositor's hits bear a star. This is a subset. The share of hits here may be higher or lower than overall.

SMILES | Menin MLL FP FL | TRPML1 ag | TRPML1 inh | ClpP mod | PINK1 expr mod | TRPV1 PAM | Sfp inh
C[C@]12CC[C@H]3[C@@H](CCC4=CC(=O)CC[C@@]43C)[C@@H]1CC[C@@H]2C(=O)CO | 6.4 | -1.0 | 24 | -0.1% | 0.2% | 9 | 79µM*
